RecA intein inh = inhibitors of M. tuberculosis RecA intein splicing; cell-free RecA intein splicing, fluorescence; inhibition, %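 (about 9 µM by stock and volumes)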; 290,000 tested, 0.75% active; in the data active means inhibition above about 30%;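 further: 0% = vehicle wells and 100% = reference inhibitor control wells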
Target sequence (P9WHJ3 whole entry, looked up): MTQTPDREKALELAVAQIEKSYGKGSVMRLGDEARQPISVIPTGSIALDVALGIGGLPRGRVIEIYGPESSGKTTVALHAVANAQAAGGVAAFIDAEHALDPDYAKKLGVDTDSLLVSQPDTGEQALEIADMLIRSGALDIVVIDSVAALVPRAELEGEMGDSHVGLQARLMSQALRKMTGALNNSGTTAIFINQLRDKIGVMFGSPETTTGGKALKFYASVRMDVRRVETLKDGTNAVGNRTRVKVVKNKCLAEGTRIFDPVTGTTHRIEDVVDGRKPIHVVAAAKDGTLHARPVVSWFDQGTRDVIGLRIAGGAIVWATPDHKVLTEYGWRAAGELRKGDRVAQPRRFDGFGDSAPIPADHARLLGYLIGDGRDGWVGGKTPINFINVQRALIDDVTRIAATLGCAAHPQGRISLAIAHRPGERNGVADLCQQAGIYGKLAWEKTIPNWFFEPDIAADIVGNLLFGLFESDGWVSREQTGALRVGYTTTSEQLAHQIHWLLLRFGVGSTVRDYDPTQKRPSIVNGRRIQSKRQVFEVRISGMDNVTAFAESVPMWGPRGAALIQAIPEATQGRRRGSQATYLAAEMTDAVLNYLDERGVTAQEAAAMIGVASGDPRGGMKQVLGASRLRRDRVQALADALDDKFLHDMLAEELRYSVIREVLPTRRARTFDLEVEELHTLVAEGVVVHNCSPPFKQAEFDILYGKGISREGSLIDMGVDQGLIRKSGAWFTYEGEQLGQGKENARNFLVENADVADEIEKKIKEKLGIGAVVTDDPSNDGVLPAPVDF
Mtb bLac sens = beta-lactam sensitization of Mtb H37Rv; M. tuberculosis H37Rv growth with meropenem, percent inhibition; hits of this screen are not shown here; inhibition, % at 25 µM; 330,000 tested, 0.27% active;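 active means about 74% or more and at least 40 points above the plate without the antibiotic, then above 30% in a dose series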;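 further: growth measured after seven days incubation then overnight dye step; 0% = bacteria only wells and 100% = bacteria with antibiotic; twin plates without the antibiotic show which effects depend on it; some results filed as inactive read as strong as hits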
YopH PTP inh = inhibitors of Yersinia enterocolitica YopH tyrosine phosphatase. inhibition, %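 (about 10 µM by stock and volumes)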. 140,000 tested, 0.16% active. fluorescence Ex485/Em525;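 active means inhibition of 50% or more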;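 further: controls were vehicle for no effect and minimum signal wells for full effect; inactives centre near -20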
Mtb growth = M. tuberculosis H37Rv growth inhibitors, H37Rv strain (AID 1626). M. tuberculosis H37Rv growth inhibition; higher % means a stronger effect. 220,000 tested, 0.95% active. one-dose inhibition, % at 10 µM; IC50 in µM for titrated hits;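 active means confirmed in a dose series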;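 further: bacteria incubated seven days before Alamar blue readout; 0% = bacteria only wells and 100% = bacteria with antibiotic wells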
Arbovirus anti = arbovirus infection inhibition | inhibition, % at 10 µM | AID 1251 | arbovirus infection cell-based antiviral screen | 200,000 tested, 0.37% active;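 active means inhibition from about 30%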;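 further: bluetongue infection of BSR cells; cell survival read as ATP light after 72 h; 0% = infected wells without compound and 100% = uninfected wells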
Arbovirus anti repeat = further read-out of Arbovirus anti, marked with its call; inhibition, %; measured here: 10K subset replicate screen; many hits read low in the repeat;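 first of two repeat runs on a subset; 0% = infected and 100% = uninfected wells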
The depositor's hits bear a star. The list is partial (hit frequency here may not be typical).

Results for NC(=O)c1sc2nc3c(c(-c4cccnc4)c2c1N)CCC3 ?
RecA intein inh: 1.2; Mtb bLac sens: -4; YopH PTP inh: 9; Mtb growth: -4%; Arbovirus anti: 5

Results for Cc1ccc(S(=O)(=O)N(C)CC(=O)Nc2nc3ccccc3s2)cc1 ?
RecA intein inh: 0.7; Mtb bLac sens: -6; YopH PTP inh: 38; Mtb growth: 4%; Arbovirus anti: 8

What do the screens show for `Cc1ccccc1NC(=O)CSc1nc(N)c(C#N)c(-c2cccs2)c1C#N`?
RecA intein inh: 0.9; Mtb bLac sens: -4; YopH PTP inh: -13; Mtb growth: -1%; Arbovirus anti: -11

Results for Cc1ccc(C(=O)C2CCN(CC(=O)Nc3ccc(N(C)C)cc3)CC2)cc1 ?
RecA intein inh: -6.0; Mtb bLac sens: 55; YopH PTP inh: 1; Mtb growth: 9%; Arbovirus anti: -8

What do the screens show for `CCN(CC(=O)Nc1c(F)cccc1F)C(=O)C(C)SCc1nc2sc(C)c(C)c2c(=O)[nH]1` (stereo not given)?
RecA intein inh: -0.6; Mtb bLac sens: -17

How did CCN(CC)CCN(Cc1cc2cc3c(cc2[nH]c1=O)OCCO3)C(=S)NCC(C)C do in these assays?
RecA intein inh: -1.2; Mtb bLac sens: 1

Results for CCOCCCNC(=O)CN1C(=O)/C(=C\c2ccc(C)cc2)Sc2ccccc21 ?
RecA intein inh: -14; Mtb bLac sens: 3; YopH PTP inh: -13; Mtb growth: -4%; Arbovirus anti: -4

Results for CN(c1ccc(OCC(=O)Nc2ccc3[nH]c(=O)[nH]c3c2)cc1)S(=O)(=O)c1ccc(Cl)cc1 ?
RecA intein inh: 4.0; Mtb bLac sens: 86; YopH PTP inh: 3; Mtb growth: -3%; Arbovirus anti: 14

How did CC(=O)NS(=O)(=O)c1ccc(NC(=O)c2ccc(Cl)cc2[N+](=O)[O-])cc1 do in these assays?
RecA intein inh: -2.9; Mtb bLac sens: -7; Mtb growth: -1%; Arbovirus anti: 4

How did Cc1cc(C)cc(NC(=O)c2ccc(Cn3nc(C)c(Cl)c3C)o2)c1 do in these assays?
RecA intein inh: 9.5; Mtb bLac sens: 94; YopH PTP inh: -29; Mtb growth: 2%; Arbovirus anti: -33

Structures shown so far that have a halogen:
What do the screens show for `CCN(CC(=O)Nc1c(F)cccc1F)C(=O)C(C)SCc1nc2sc(C)c(C)c2c(=O)[nH]1` (stereo not given)?
RecA intein inh: -0.6; Mtb bLac sens: -17

Results for CN(c1ccc(OCC(=O)Nc2ccc3[nH]c(=O)[nH]c3c2)cc1)S(=O)(=O)c1ccc(Cl)cc1 ?
RecA intein inh: 4.0; Mtb bLac sens: 86; YopH PTP inh: 3; Mtb growth: -3%; Arbovirus anti: 14

How did CC(=O)NS(=O)(=O)c1ccc(NC(=O)c2ccc(Cl)cc2[N+](=O)[O-])cc1 do in these assays?
RecA intein inh: -2.9; Mtb bLac sens: -7; Mtb growth: -1%; Arbovirus anti: 4

How did Cc1cc(C)cc(NC(=O)c2ccc(Cn3nc(C)c(Cl)c3C)o2)c1 do in these assays?
RecA intein inh: 9.5; Mtb bLac sens: 94; YopH PTP inh: -29; Mtb growth: 2%; Arbovirus anti: -33

Further records.
How did O=C(NCCNC(=O)c1ccc(Cl)cc1Cl)c1ccccn1 do in these assays?
RecA intein inh: 0.4; Mtb bLac sens: 4

How did CSc1nsc(/C=C/Nc2ccc(F)cc2)c1C#N do in these assays?
RecA intein inh: 9.9; Mtb bLac sens: -2; Arbovirus anti: 7

What do the screens show for `CCOC(=O)c1c(NC(=O)Cc2ccccc2)sc2c1CCN(C)C2`?
RecA intein inh: -7.0; Mtb bLac sens: 1

How did COC(=O)c1cccc(NC(=O)CN(c2ccc3c(c2)OCO3)S(C)(=O)=O)c1C do in these assays?
RecA intein inh: -3.5; Mtb bLac sens: -1; YopH PTP inh: -6; Mtb growth: -1%; Arbovirus anti: -4

How did CCOC(=O)C1(CCc2ccccc2)CCN(Cc2cccc3nccnc23)CC1 do in these assays?
RecA intein inh: 2.1; Mtb bLac sens: 0; Mtb growth: 1%; Arbovirus anti: 14

Results for Cc1[nH]c2ccccc2c1C(c1ccccn1)N1CCC(C)CC1 (stereo not given) ?
RecA intein inh: -3.6; Mtb bLac sens: -4; YopH PTP inh: 6; Mtb growth: -3%; Arbovirus anti: -7

Results for CCCCC1OC23CCCCC2C(C#N)(C#N)C1(C#N)C(=N)O3 (stereo not given) ?
RecA intein inh: -139; Mtb bLac sens: 3; YopH PTP inh: -28; Mtb growth: -6%; Arbovirus anti: -12

How did Cc1ccc(O)c(/C=N/NC(=O)CN2CCCC2)c1 do in these assays?
RecA intein inh: -4.6; Mtb bLac sens: 1

Results for Cc1nc2ccccc2c2c1C(=O)N(CCC1=CCCCC1)C2=O ?
RecA intein inh: 12; YopH PTP inh: -19; Mtb growth: 3%; Arbovirus anti: 1

What do the screens show for `COC(=O)C1=C[C@@H](C(=O)OC)[C@@H]2C3=C(C(=O)[C@@]2(C)NC(=O)c2ccccc2)[C@H](c2ccccc2)n2c(=O)n(-c4ccccc4)c(=O)n2[C@@H]3C1`?
RecA intein inh: 2.9; Mtb bLac sens: 0; Mtb growth: 2%

What do the screens show for `CNC(=S)N/N=C(\C)c1ccc(C)c(C)c1`?
RecA intein inh: -2.0; Mtb bLac sens: 92; YopH PTP inh: -35; Mtb growth: -5%; Arbovirus anti: -2

Results for Cc1ccc(NC(=O)NNC(=O)c2cc3ccccc3cc2O)cc1 ?
RecA intein inh: -2.8; Mtb bLac sens: -17

How did CC(C)[C@H](NC(=O)NCCc1ccccc1)C(=O)O do in these assays?
RecA intein inh: 0.2; Mtb bLac sens: -12; YopH PTP inh: 8; Mtb growth: -7%; Arbovirus anti: 6

What do the screens show for `CN(C(=O)CSc1nc2c(c(=O)[nH]1)CCC2)c1ccccc1`?
RecA intein inh: -1.2; Mtb bLac sens: -4; Mtb growth: 10%; Arbovirus anti: 1

What do the screens show for `COc1ccc(NC(=O)Cc2nc3ccccc3[nH]2)cc1`?
RecA intein inh: -0.4; Mtb bLac sens: 38; YopH PTP inh: -27; Mtb growth: -10%; Arbovirus anti: 11; Arbovirus anti repeat: 1

What do the screens show for `CCc1nc2ccccc2c(C(=O)O)c1C`?
RecA intein inh: -2.1; Mtb bLac sens: -4; YopH PTP inh: -20; Mtb growth: -3%; Arbovirus anti: -6

How did Cc1ccc(-c2nc(CS(=O)CC(=O)NCc3ccccn3)c(C)o2)cc1 (stereo not given) do in these assays?
RecA intein inh: 0.8; Mtb bLac sens: 2; YopH PTP inh: -25; Mtb growth: 1%; Arbovirus anti: -5; Arbovirus anti repeat: -3

Results for C=CCOc1ccccc1CNCCCN1CCOCC1 ?
RecA intein inh: -2.6; Mtb bLac sens: -2; YopH PTP inh: 1; Mtb growth: -9%; Arbovirus anti: 6

How did S=c1[nH]nc(-c2cccc3ccccc23)n1-c1cccnc1 do in these assays?
RecA intein inh: -1.3; Mtb bLac sens: -3

How did COC(=O)c1ccc(CSc2nc3cc(Cl)ccc3s2)o1 do in these assays?
RecA intein inh: 5.7; Mtb bLac sens: -1; YopH PTP inh: -129; Mtb growth: -11%; Arbovirus anti: 7

Reprinted at random: two records from the list
What do the screens show for `CN(C(=O)CSc1nc2c(c(=O)[nH]1)CCC2)c1ccccc1`?
RecA intein inh: -1.2; Mtb bLac sens: -4; Mtb growth: 10%; Arbovirus anti: 1

What do the screens show for `CCc1nc2ccccc2c(C(=O)O)c1C`?
RecA intein inh: -2.1; Mtb bLac sens: -4; YopH PTP inh: -20; Mtb growth: -3%; Arbovirus anti: -6

The list continues:
What do the screens show for `COc1ccc(CC(=O)NNC(=O)c2cccs2)cc1`?
RecA intein inh: 1.8; Mtb bLac sens: 6; YopH PTP inh: -40; Mtb growth: 0%; Arbovirus anti: -3

How did CCCOC(=O)c1ccc(Nc2cc(C)nc3ncnn23)cc1 do in these assays?
RecA intein inh: -7.2; Mtb bLac sens: 15; YopH PTP inh: -21; Mtb growth: 15%; Arbovirus anti: -1

How did COc1cc(S(=O)(=O)NCCCN2CCOCC2)ccc1Cl do in these assays?
RecA intein inh: -0.1; Mtb bLac sens: -5; YopH PTP inh: -21; Mtb growth: 1%; Arbovirus anti: -2

How did CC1CCC(NC(=O)CN(C)S(=O)(=O)c2ccc3c(c2)c(=O)n(C)c(=O)n3C)CC1 (stereo not given) do in these assays?
RecA intein inh: -2.3; Mtb bLac sens: -3

How did Cc1c(C(=O)NCc2ccccn2)oc2ccccc12 do in these assays?
RecA intein inh: 3.9; Mtb bLac sens: -11; YopH PTP inh: -16; Mtb growth: 4%; Arbovirus anti: -4

What do the screens show for `Cc1ccc(-n2c(C)nnc2SCC(=O)NC2CC2)cc1`?
RecA intein inh: -6.4; Mtb bLac sens: -10

Results for Cc1cc(NC(=O)c2cccc(S(=O)(=O)N3CCCCCC3)c2)n(-c2ccccn2)n1 ?
RecA intein inh: -1.0; Mtb bLac sens: -1; YopH PTP inh: -44; Mtb growth: 4%; Arbovirus anti: 5

Results for COc1cccc(SCc2noc(C(=O)NCC3CCCO3)c2C(=O)O)c1 (stereo not given) ?
RecA intein inh: 8.8; Mtb bLac sens: -3; YopH PTP inh: -10; Mtb growth: -10%; Arbovirus anti: 12

Results for Cc1cc(N2C(=O)CC(C(C)c3ccccc3)C2=O)no1 (stereo not given) ?
RecA intein inh: 2.8; Mtb bLac sens: -5; YopH PTP inh: -17; Mtb growth: -8%; Arbovirus anti: 6

What do the screens show for `CN(CCOc1ccccc1)CC(=O)Nc1ccc(Cl)c(S(=O)(=O)N(C)C)c1`?
RecA intein inh: 2.8; Mtb bLac sens: 0; Mtb growth: 7%; Arbovirus anti: 4

Results for CCCNC(=O)Cn1nc(C)n2c(cc3cc(F)ccc32)c1=O ?
RecA intein inh: -1.3; Mtb bLac sens: 3

How did Cc1ccc(C(=O)C[n+]2cccc3ccccc32)cc1 do in these assays?
RecA intein inh: 0.2; Mtb bLac sens: 0; YopH PTP inh: -34; Mtb growth: -14%; Arbovirus anti: -3

What do the screens show for `Fc1ccc(C2c3[nH]c4ccccc4c3CCN2Cc2cccn2-c2ncccn2)cc1` (stereo not given)?
RecA intein inh: 3.2; Mtb bLac sens: 6; Mtb growth: 1%; Arbovirus anti: 11

How did Cc1cc(Nc2ccccc2F)n2nc(C)nc2n1 do in these assays?
RecA intein inh: -0.4; Mtb bLac sens: 3; YopH PTP inh: -29; Arbovirus anti: 0; Arbovirus anti repeat: 5

What do the screens show for `CC(=O)c1cc(NC(=O)c2ccc([N+](=O)[O-])cc2)c(=O)oc1C`?
RecA intein inh: -5.9; Mtb bLac sens: -4; Mtb growth: -6%; Arbovirus anti: 0

What do the screens show for `O=C(Nc1ccc(F)cc1)N1CCn2c(nc3ccccc32)C1`?
RecA intein inh: 2.9; Mtb bLac sens: -5; YopH PTP inh: -29; Mtb growth: 0%; Arbovirus anti: 0

How did CCCCN(C(=O)C1CCN(C(=O)c2ccccc2C)CC1)c1c(N)n(CCCC)c(=O)[nH]c1=O do in these assays?
RecA intein inh: -3.0; Mtb bLac sens: -6

How did O=C(NC1CCS(=O)(=O)C1)C1CCCCN1S(=O)(=O)c1ccc(Cl)cc1 (stereo not given) do in these assays?
Mtb bLac sens: 5; YopH PTP inh: -26; Mtb growth: -4%; Arbovirus anti: 3; Arbovirus anti repeat: 7

What do the screens show for `COc1ccc(CCNC(=O)c2cc3c(=O)n(C)c4ccccc4c3n2C)c(OC)c1`?
RecA intein inh: 3.5; Mtb bLac sens: 0; Mtb growth: -3%

Results for CCOC(=O)C1=C(C)NC(C)=C(C(=O)OCC)C1/C=C/c1ccccc1OC ?
RecA intein inh: 0.7; Mtb bLac sens: 4; YopH PTP inh: -40; Mtb growth: 0%; Arbovirus anti: -9

Results for O=C(c1ccccc1Br)N1CCN(Cc2ccc3c(c2)OCO3)CC1 ?
RecA intein inh: -1.3; Mtb bLac sens: 0

How did c1ccc2c(Cn3ccnc3)cccc2c1 do in these assays?
RecA intein inh: -1.7; Mtb bLac sens: -4

Results for CC(=O)OCCN1CCN(C(=O)CN2C(=O)NC(c3ccccc3)(c3ccccc3)C2=O)CC1 ?
RecA intein inh: -2.2; Mtb bLac sens: -4

How did CCOC(=O)c1cnc2sccn2c1=O do in these assays?
RecA intein inh: 1.7; Mtb bLac sens: 0; YopH PTP inh: -23; Mtb growth: 1%; Arbovirus anti: 12

What do the screens show for `COc1ccc(Cc2nnc(NC(=O)C3CC(=O)N(CCc4ccc(F)cc4)C3)s2)cc1OC` (stereo not given)?
RecA intein inh: 2.9; Mtb bLac sens: -3

Results for CCCCC(=O)Nc1ccccc1C(=O)N1CCOCC1 ?
RecA intein inh: 0.6; Mtb bLac sens: -1; YopH PTP inh: -31; Mtb growth: 1%; Arbovirus anti: 6

Compound activity (PubChem)
